D2 PAM: Beta-Arrestin HTS for Positive Allosteric Modulators of the Human D2 Dopamine Receptor: Potentiators. D(2) dopamine receptor (Homo sapiens), P14416. hit rate 0.23% among 360,000. DiscoveRx D2 beta-arrestin cells, luminescence, 90 min; 100% = 57 uM dopamine signal. potentiation, % (no concentration beside the values). AID 624464, 2012; active = potentiation of 50% or more; inconclusive = 30% to 50%; inactive = 30% or less;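 also: compound concentration not given in the record; tested on top of an EC20 dose of dopamine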
Target sequence (P14416 whole entry, looked up): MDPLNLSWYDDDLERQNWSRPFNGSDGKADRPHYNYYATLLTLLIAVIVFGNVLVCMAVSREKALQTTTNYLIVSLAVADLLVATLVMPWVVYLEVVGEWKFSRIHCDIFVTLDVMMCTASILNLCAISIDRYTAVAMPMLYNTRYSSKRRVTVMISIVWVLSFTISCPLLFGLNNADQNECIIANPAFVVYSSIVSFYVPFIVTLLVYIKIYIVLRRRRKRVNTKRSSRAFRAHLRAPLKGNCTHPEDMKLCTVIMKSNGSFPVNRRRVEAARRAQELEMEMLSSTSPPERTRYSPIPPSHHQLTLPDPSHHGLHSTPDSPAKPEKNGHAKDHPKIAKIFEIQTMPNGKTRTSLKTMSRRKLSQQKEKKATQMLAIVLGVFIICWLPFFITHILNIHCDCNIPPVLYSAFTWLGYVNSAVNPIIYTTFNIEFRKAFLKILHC
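D2 cells co-treated with compound plus 50 nM dopamine (EC20) for 90 min at 37 deg C to detect potentiation. Beta-arrestin recruitment was read as enzyme-fragment luminescence after 1 h at ambient temperature. Full response was set by 57 uM dopamine.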
TRPML1 ag: qHTS for Agonists of the Human Mucolipin Transient Receptor Potential 1 (TRPML1); Mucolipin-1 (Homo sapiens), Q9GZU1; TRPML1-expressing cells, Ca2+ dye fluorescence, FDSS; host cell line not named in the record; reference of the full effect not given here; activation, % (test concentration not listed); hit rate 0.12% among 410,000; AID 624414, 2012; in the data active = activation above about 50%; inconclusive = about 30% to 50%; inactive = below about 30%; also: 0% is about no effect; the text of the record puts the active cut at 80%
Target sequence (Q9GZU1 whole entry, looked up): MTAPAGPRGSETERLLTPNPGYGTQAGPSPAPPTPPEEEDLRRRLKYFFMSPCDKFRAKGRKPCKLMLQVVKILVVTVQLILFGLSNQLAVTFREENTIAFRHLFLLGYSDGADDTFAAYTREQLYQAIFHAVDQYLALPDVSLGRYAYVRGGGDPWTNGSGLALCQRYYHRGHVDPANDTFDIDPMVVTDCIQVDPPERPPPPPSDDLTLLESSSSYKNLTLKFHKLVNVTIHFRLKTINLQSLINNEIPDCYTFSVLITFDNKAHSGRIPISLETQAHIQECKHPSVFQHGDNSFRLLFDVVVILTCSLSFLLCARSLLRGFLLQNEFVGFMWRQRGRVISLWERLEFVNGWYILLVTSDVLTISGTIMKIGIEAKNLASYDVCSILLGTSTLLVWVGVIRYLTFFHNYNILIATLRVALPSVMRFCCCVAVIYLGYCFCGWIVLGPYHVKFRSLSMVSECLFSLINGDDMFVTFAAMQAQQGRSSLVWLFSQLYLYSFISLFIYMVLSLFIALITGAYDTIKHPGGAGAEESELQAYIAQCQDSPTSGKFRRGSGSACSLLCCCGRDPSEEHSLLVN
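Kinetic FDSS Ca2+ read in Tet-induced TRPML1-DL cells (ABD Ca8 dye plus quencher, 45-90 min RT loading): baseline, then compound, then 110 s agonist window; EC80 agonist 54-4 at 4uM final added afterwards for a 110 s antagonist window.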
Six1-Eya2 inh: qHTS Assay for Inhibitors of the Six1/Eya2 Interaction. AlphaScreen GST-Six1/His-Eya2 binding, biochemical; active compounds read low; control for the full effect not named in the record. hit rate 0.56% among 360,000. AID 651725, 2012. activity change, % (test concentration not listed); in the data active = activity change below about -65%; inconclusive = about -30% to -65%; inactive = above about -30%; also: % is scaled to controls: 0 for no effect and ±100 for the full control effect
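Compounds are tested against tagged Six1 and Eya2 proteins bridged by glutathione donor and nickel acceptor beads; after a one-hour incubation at 37 °C without light, AlphaScreen emission is recorded.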
CtBP-E1A inh: qHTS Assay for Inhibitors of the CtBP/E1A Interaction; CtBP / adenovirus E1A interaction (AlphaScreen); AlphaScreen GST-E1A/His-CtBP binding, 1536-well; active compounds read low; control for the full effect not named in the record; activity change, % (concentration not given with the values); hit rate 0.49% among 340,000; in the data active means activity change below about -65%; inconclusive means about -30% to -65%; inactive means above about -30%; also: % is scaled to controls: 0 for no effect and ±100 for the full control effect
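Protein mix (5X: 125 nM each GST-E1A, His-CtBP) was incubated with pinned compound 2 h at 37 deg C in dark, in 50 mM Tris pH 8.0 buffer with 300 mM NaCl. Glutathione donor and nickel acceptor beads followed; AlphaScreen signal read after 1 h.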
PINK1 expr mod: A Quantitative High throughput Screen to Identify Chemical Modulators of PINK1 Expression. PINK1 immunofluorescence, high-content cytometry, 24 h. Potency, µM (series often up to 76.6 µM), for inactives: at the top dose activation (PINK1 increase), most hits filed as activators. hit rate 0.2% among 410,000; active = well fitted activation curve with a large enough effect; inconclusive = small, poorly fitted or top-dose-only effect; inactive = flat fitted curve, though single readings scatter; cell line not stated here;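 also: potency is read from the fitted curve at half-maximal effect; % of control where 0% means no effect; nearly all actives have a fitted effect of over 65% in size; a mitochondrial uncoupler was the plate control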
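Compound titrations (5 concentrations, 24 h) on a stable cell line; DMSO and CCCP controls. Endpoint: fixed-cell PINK1 immunofluorescence with mitochondrial, cell and nuclear markers, scanned by microplate cytometer.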
D2 ag: Beta-Arrestin HTS for Positive Allosteric Modulators of the Human D2 Dopamine Receptor: Agonists; D(2) dopamine receptor (Homo sapiens), P14416; DiscoveRx PathHunter D2 beta-arrestin, luminescence, 90 min; 100% = 57 uM dopamine signal; activation, % (test concentration not listed); hit rate 0.084% among 360,000; AID 624465, 2012; in the data active = activation above about 40%; inconclusive = about 15% to 40%; inactive = below about 15%; also: compound concentration not given in the record; the text of the record calls up to 30% inactive
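DiscoveRx PathHunter D2 beta-arrestin cells (2,100/well) attached overnight, then compound-stimulated 90 min at 37 C in HBSS/10 mM HEPES/0.1% Tween-20 buffer; beta-galactosidase complementation read by luminescence after 1 h at ambient temperature. Dopamine 57 uM final (EC100) as control.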
* = called active by the depositor; ? = inconclusive; / = not tested or not shown; & = joins results of further samples; [ ] = remark or other dose.

SMILES	D2 PAM	TRPML1 ag	Six1-Eya2 inh	CtBP-E1A inh	PINK1 expr mod	D2 ag
COc1ccc(CCn2c(=N)c(C(=O)NC3CCCC3)cc3c(=O)n4cccc(C)c4nc32)cc1	-8	-0.4	-3	/	1.6%	-3.2
CC(=O)NS(=O)(=O)c1ccc(NC(=O)c2cccc(S(=O)(=O)N3CCc4ccccc43)c2)cc1	-11	-0.6	-5	3	2.3%	-4.4
CCOC(=O)CCN1C(=O)c2ccccc2Sc2ncccc21	-6	-0.8	2	5	3.2%	-0.7
Cc1cccc(NC(=S)NC(=O)c2oc3ccccc3c2C)n1	4	-0.3	-2	6	9.0%	-1.3
CC(C)CCNC(=O)CCS(=O)(=O)c1cccc2nonc12	-5	-1.1	7	8	1.6%	-0.2
Oc1ccc(-c2onc3ccc(Cl)cc23)cc1	50*	10	11	5	-2.8%	?
COc1ccc(C(=O)Nc2ccc(SC(F)F)cc2)cc1	-26	-0.3	10	-2	-0.6%	-0.6
COC(=O)[C@H](Cc1c[nH]c2ccccc12)NC(=O)Nc1ccccc1OC	?	-0.4	2	-1	-0.7%	-1.2
COc1ccc(OC)c(NC(=O)CS(=O)(=O)Cc2nc(-c3ccccc3C)oc2C)c1	-4	0.4	-7	-3	2.1%	-5.8
CCCn1nnc(NC(=O)c2ccc(-c3ccccc3)cc2)n1	-14	-0.2	-1	0	/	1.0
NNc1ccc(Cc2ccc(Cl)cc2Cl)nn1	-8	-0.6	-22	-14	-1.5%	-7.4
O=C(Nc1ccccc1C(=O)N1CCOCC1)c1ccco1	-4	-0.6	4	13	-1.5%	-0.7
COc1ccccc1-n1c(SCC(=O)Nc2ccc(NC(C)=O)cc2)nc2c([nH]c3ccccc32)c1=O	6	0.2	0	9	5.3%	1.6
Cc1ccnc(NC(=O)c2ccc(Cl)c(NC(=O)c3ccccc3C)c2)c1	-6	-0.2	-5	7	-0.2%	-5.6
Cc1ccc(C(=O)Oc2cc(C)[nH]c(=O)c2[N+](=O)[O-])cc1	7	-0.6	4	10	0.4%	5.3
CC(=O)Nc1ccc(SC[C@H](Cc2ccccc2)N2CC[C@@H](C)CCC2=O)cc1	-1	-0.7&-0.2	-9	1	1.4%	-1.6
COc1cccc(-c2cc(C(=O)N3CCCCC3C)no2)c1 (configuration not stated)	-2	1.5	8	11	-1.8%	2.4
O=C(NCCc1cccnc1)C1CCC(=O)N(CCc2cccc(F)c2)C1 (configuration not stated)	18	0.0	12	-5	1.3%	2.0
O=C(Cn1nnc(-c2cccs2)n1)OC1CCCCC1	2	1.4	19	21	-1.9%[38.3 µM]	1.3
O=C(CCNS(=O)(=O)c1ccccc1C(F)(F)F)NC1CCCCCC1	-21	-0.4	4	5	-0.7%	-4.5
O=C1NN(c2ccc(Br)cc2)C(=O)/C1=C\c1ccc(O)cc1O	-3	1.1	-1	-1	1.7%	-5.1
COc1ccc(N2CCN(Cc3nc4c(c(=O)[nH]c(=O)n4C)n3CC(C)=O)CC2)cc1	1	-1.0	-4	1	1.4%	2.0
CCOc1ccc(NS(=O)(=O)c2cc3c4c(c2)CCN4C(=O)CC3)cc1	-10	-0.1	3	8	2.1%	-3.2
COc1ccc2oc(=O)cc(C)c2c1	11	-0.1	5	12	-1.6%	-3.9
CCOC(=O)C1CCCN(Cc2nc(N)nc(Nc3ccc(Cl)cc3)n2)C1 (configuration not stated)	-25	0.1	-7	-11	0.0%	-0.3
New compounds follow
SMILES	D2 PAM	TRPML1 ag	Six1-Eya2 inh	CtBP-E1A inh	PINK1 expr mod	D2 ag
N#CC12C(=O)NC(=O)C1(C#N)C21CCCC1 (configuration not stated)	2	-0.2	11	-4	0.1%	1.2
CC(=O)c1cc(C)c(OC(=O)c2ccccc2)c(C)c1	-12	0.9	12	-11	6.6%	0.9
CSc1nc(C)c(CCOCc2ccc(F)cc2)c(=O)[nH]1	-5	0.3	2	0	0.7%	-7.6
Cc1ccc(S(=O)(=O)N2CCC(C(=O)N3CCC[C@H]3C(=O)NC3CCS(=O)(=O)C3)CC2)cc1 (some centres not stated)	-3	-0.1	5	4	-1.0%[38.3 µM]	-0.1
CC(C)(C)C(O)CN1CCCC1 (configuration not stated)	-10	-0.5	2	20	0.9%	4.7
CC1=C(C(=O)OCC(C)C)C(c2cc3c(cc2Br)OCO3)NC(=O)N1C (configuration not stated)	-12	2.9	-12	-3	2.8%	-1.9
C=CCn1c(SCC(=O)Nc2ccc(F)cc2)nc2cc(C(=O)O)ccc2c1=O	-2	0.3	0	0	-1.0%	-0.4
O=C(COC(=O)CCOc1ccccc1)Nc1cc(S(=O)(=O)N2CCCCC2)ccc1Cl	-22	1.0	5	-23	-1.4%	0.8
CCOC(=O)c1[nH]c(C)c(/C(O)=C2\C(=O)C(=O)N(CCCn3ccnc3)C2c2ccncc2)c1C (configuration not stated)	-9	-0.4	-2	1	2.1%	-1.9
O=C(CN1CCN(C(=O)c2ccccc2)CC1)Nc1ccccc1	-1	-0.5	-1	2	-0.4%	-0.2
O=c1cc(-c2ccccc2)nc2n1Cc1ccccc1-2	-11	2.2	0	0	?	0.2
FC(F)(F)Oc1ccccc1C(c1nnnn1C1CCCC1)N1CCN(C/C=C/c2ccccc2)CC1 (configuration not stated)	-14	?	-8	-10	0.4%	-5.2
Cc1[nH]ccc(=O)c1OCc1ccccc1	-1	-0.3	-2	3	0.7%	-4.0
Cc1ccc(S(=O)(=O)NCC(=O)OCc2nnc(-c3ccccc3)o2)cc1	13	-0.1	-2	-1	2.5%	-0.9
COc1ccc(NC(=O)n2nc(OC(=O)c3cccs3)cc2N)cc1	-8	-0.1	-13	-2	1.2%	-1.4
COc1cc(C2=NOC(C(=O)NCc3cccnc3)C2)cc(OC)c1OC (configuration not stated)	1	0.7	-3	-23	13%	-4.3
CCS(=O)(=O)N1Cc2ccccc2CC1C(=O)NCCc1ccccc1 (configuration not stated)	3	1.7	-4	11	2.3%	5.2
CCN1CCc2c(OCc3ccc(C(=O)OC)o3)cccc2C1=O	2	0.4	-1	-1	0.2%	1.6
CCC(C)NC(=O)c1cc(-c2cccs2)nc2ccccc12 (configuration not stated)	-2	2.1	9	2	13%	-1.2
O=C(COc1cccnc1[N+](=O)[O-])Nc1c(Cl)cccc1Cl	-1	0.4	5	-2	-1.9%	-2.4
CCOc1ccc(Br)cc1S(=O)(=O)N1CCSC1	-5	-0.7	14	9	0.5%	2.3
Cc1nn(C)c(-c2n[nH]c(=S)n2Cc2ccco2)c1Cl	-10	3.1	9	-3	3.8%	4.1
COc1ccccc1-c1nc(C#N)c(N2CCC(C(N)=O)CC2)o1	-4	0.1	-1	0	2.1%[38.3 µM]	-0.1
Cc1n[nH]c(=S)n(NC(=O)CC(=O)Nn2c(=S)[nH]nc(C)c2=O)c1=O	-43	0.4	-87*	24	-0.8%	-20
CCCCN(Cc1cc2cc(OC)ccc2[nH]c1=O)C(=O)c1ccccn1	-5	-0.1	3	9	1.4%	-4.7
Later entries.
SMILES	D2 PAM	TRPML1 ag	Six1-Eya2 inh	CtBP-E1A inh	PINK1 expr mod	D2 ag
CSc1ccc(NC(=O)NN(c2ccccc2)C2CCS(=O)(=O)C2)cc1 (configuration not stated)	-12	0.0	-7	1	-1.8%	-4.6
Cc1cc(O)cc(O)c1C(=O)Cc1cscn1	-6	-0.3	1	1	0.3%	-2.4
O=C(NC(=O)c1cccc(F)c1)OC[C@@H]1CCCN2CCCC[C@H]12	-1	-0.5	-1	4	2.7%	-4.5
C/C(=N/NC(=O)CNC(=O)c1ccco1)c1ccc(Cl)cc1	-12	-0.4	-21	/	0.8%	-2.5
COc1ccc2nc3oc(C(=O)N4CCN(c5cccc(Cl)c5)CC4)cc3cc2c1	4	0.0	2	3	1.8%	-3.0
N#Cc1cc(C(=O)c2cc(Br)ccc2O)cn(C2CC2)c1=O	9	-0.8	-4	1	-1.4%	2.9
CCOC(=O)c1cc(OC(C)=O)c2ccc(OC)c(OC)c2c1	-4	0.7	3	3	0.3%	-8.0
CN1OC[C@@H]2CN(S(=O)(=O)c3ccccc3)[C@H](c3ccccc3Br)C[C@@H]21	-1	-0.7	2	-1	0.6%	-0.9
CCCCN(C)CCCNC(=O)C1CC(=O)N(Cc2ccc(OC)cc2)C1 (configuration not stated)	-8	-0.1	5	7	-1.9%	-1.0

Ordered by molecular weight (falling): part of the list above
SMILES	D2 PAM	TRPML1 ag	Six1-Eya2 inh	CtBP-E1A inh	PINK1 expr mod	D2 ag
CN1OC[C@@H]2CN(S(=O)(=O)c3ccccc3)[C@H](c3ccccc3Br)C[C@@H]21	-1	-0.7	2	-1	0.6%	-0.9
COc1ccc2nc3oc(C(=O)N4CCN(c5cccc(Cl)c5)CC4)cc3cc2c1	4	0.0	2	3	1.8%	-3.0
CSc1ccc(NC(=O)NN(c2ccccc2)C2CCS(=O)(=O)C2)cc1 (configuration not stated)	-12	0.0	-7	1	-1.8%	-4.6
Cc1n[nH]c(=S)n(NC(=O)CC(=O)Nn2c(=S)[nH]nc(C)c2=O)c1=O	-43	0.4	-87*	24	-0.8%	-20
CCCCN(C)CCCNC(=O)C1CC(=O)N(Cc2ccc(OC)cc2)C1 (configuration not stated)	-8	-0.1	5	7	-1.9%	-1.0
CCCCN(Cc1cc2cc(OC)ccc2[nH]c1=O)C(=O)c1ccccn1	-5	-0.1	3	9	1.4%	-4.7
N#Cc1cc(C(=O)c2cc(Br)ccc2O)cn(C2CC2)c1=O	9	-0.8	-4	1	-1.4%	2.9
CCOc1ccc(Br)cc1S(=O)(=O)N1CCSC1	-5	-0.7	14	9	0.5%	2.3
O=C(NC(=O)c1cccc(F)c1)OC[C@@H]1CCCN2CCCC[C@H]12	-1	-0.5	-1	4	2.7%	-4.5
COc1ccccc1-c1nc(C#N)c(N2CCC(C(N)=O)CC2)o1	-4	0.1	-1	0	2.1%[38.3 µM]	-0.1
CCOC(=O)c1cc(OC(C)=O)c2ccc(OC)c(OC)c2c1	-4	0.7	3	3	0.3%	-8.0
Cc1nn(C)c(-c2n[nH]c(=S)n2Cc2ccco2)c1Cl	-10	3.1	9	-3	3.8%	4.1
